Source: PubChem BioAssay (National Center for Advancing Translational Sciences (NCATS))
Resorufin fluor: qHTS Assay for Spectroscopic Profiling in Resorufin Spectral Region; hit rate 0.04% among 59,000; max dye-equivalent concentration, M; Compound fluorescence, resorufin region 547/598 nm, buffer; active compounds read high; active = above 10 nM dye equivalent; inconclusive = 1 to 10 nM; inactive = 1 nM or less; a few of its hits are not listed in these tables; further: highest value over a series up to 38 µM
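Read-out: intrinsic compound fluorescence at ex 547/em 598 nm after 15 min at RT in pH 8.0 Tris (100 mM). Values expressed as resorufin-equivalent concentration from per-plate standard series.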
AID923: qHTS Assay for Allosteric/Competitive Inhibitors of Caspase-1: Spectroscopic Profiling in AFC Spectral Region; Potency, µM (series often up to 57.5 µM), inactives show at the highest dose fluorescence increase, actives largely listed as activators; hit rate 1.1% among 75,000; compound fluorescence, AFC spectral region (405/520 nm); almost no hit is shown here; AID 923, 2007; active means well fitted activation curve with a large enough effect; inconclusive means small, poorly fitted or top-dose-only effect;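 further: potency means the concentration at half of the fitted maximal effect; 0% is about no effect; scaled to a free AFC standard on each plate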
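Compound autofluorescence profiled at 405 nm ex/520 nm em during kinetic caspase 1 run (50 nM enzyme, 5 uM Ac-WEHD-AFC, HEPES pH 7.5, 10 mM DTT). Titration up to 57 uM; baseline from regression intercept, normalized to AFC standard curve.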
A488 autofl: qHTS Assay for Spectroscopic Profiling in A488 Spectral Region. compound autofluorescence, A488 spectral region, dye equivalency; active compounds read high. max dye equivalency, M. hit rate 0.1% among 59,000; active = above 10 nM dye equivalent; inconclusive = 1 to 10 nM; inactive = 1 nM or less; about half of its hits are not listed in these tables;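 further: highest value over a series up to 38 µM; compound alone in buffer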
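Compounds pin-transferred into 100 mM Tris buffer, pH 8.0, incubated 15 min at room temperature, then imaged with 480 nm excitation/540 nm emission filters. Fluorescence converted to Alexa 488 dye-equivalent concentration via an on-plate six-point A488 standard curve.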
A647 fluor: qHTS Assay for Spectroscopic Profiling in A647 Spectral Region | Compound fluorescence, A647 channel (570/671 nm), Tris buffer | max dye-equivalent concentration, M | 59,000 tested, under 10 active | AID 592, 2007; active means above 1 µM dye equivalent; inconclusive means 0.1 to 1 µM; inactive means 0.1 µM or less;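 further: values scaled relative to a standard on each plate; highest value over a series up to 38 µM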
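Buffer was dispensed, compounds and Alexa 647 standards were pin-transferred, and plates sat 15 min at room temperature. Intensity at 570/671 nm was then converted to dye-equivalent concentration using the plate's A647 standard curve.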
TSHR ag: qHTS Assay for Agonists of the Thyroid Stimulating Hormone Receptor | Thyrotropin receptor (Homo sapiens), P16473 | HEK293-CNG-TSHR cells (CNG channel as cAMP sensor), membrane potential dye, cAMP | Potency, µM (series often up to 57.1 µM), inactives show at the top dose activation, most hits filed as activators | hit rate 0.48% among 73,000 | AID 926, 2007; active = well fitted activation curve of enough size with the parental cells flat; inconclusive = any curve in the parental cells; inactive = parental cells flat and receptor cells flat or falling; further: potency means the concentration at half of the fitted maximal effect; % of control where 0% means no effect; weak receptor curves with flat parental cells got no call and are not listed
Target sequence (P16473 whole entry, looked up): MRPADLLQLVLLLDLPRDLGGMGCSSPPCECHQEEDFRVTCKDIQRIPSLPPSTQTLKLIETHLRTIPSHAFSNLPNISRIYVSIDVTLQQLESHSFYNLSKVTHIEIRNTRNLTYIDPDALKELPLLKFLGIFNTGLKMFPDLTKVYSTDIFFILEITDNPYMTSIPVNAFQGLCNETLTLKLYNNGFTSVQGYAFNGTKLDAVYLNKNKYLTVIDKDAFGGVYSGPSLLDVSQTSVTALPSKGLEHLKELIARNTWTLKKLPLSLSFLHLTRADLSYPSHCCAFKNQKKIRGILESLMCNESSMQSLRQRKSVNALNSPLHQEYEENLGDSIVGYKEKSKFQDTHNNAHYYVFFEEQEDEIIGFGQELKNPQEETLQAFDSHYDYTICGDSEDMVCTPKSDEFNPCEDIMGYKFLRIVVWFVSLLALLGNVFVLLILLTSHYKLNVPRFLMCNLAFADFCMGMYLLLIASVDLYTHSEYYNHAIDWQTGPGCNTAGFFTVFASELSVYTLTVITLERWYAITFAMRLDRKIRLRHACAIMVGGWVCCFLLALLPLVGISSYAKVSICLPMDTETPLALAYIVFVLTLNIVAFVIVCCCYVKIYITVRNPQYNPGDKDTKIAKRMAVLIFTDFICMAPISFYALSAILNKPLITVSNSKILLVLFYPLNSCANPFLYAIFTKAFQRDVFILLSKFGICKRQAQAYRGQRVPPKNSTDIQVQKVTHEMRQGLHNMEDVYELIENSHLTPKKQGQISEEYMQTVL
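HEK 293 cells stably expressing TSHR and a cAMP-gated CNG channel; parental CNG-only cells as counterscreen. Cells preloaded 60 min with membrane potential dye plus 100 uM RO 20-1724, then compound 30 min; fluorescence read at 590 nm.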
* hit, by the source's call; [ ] = remark or other dose. An excerpt. The share of hits here may be higher or lower than overall.

Cc1c(/C=N/n2cnnc2)c2ccccc2n1C was read as AID923 -1.7% and TSHR ag inconclusive.
Screening COc1ccc(CCNC(=O)C2=COCCO2)cc1 returned Resorufin fluor inactive, AID923 0.4%, A488 autofl inactive, A647 fluor 2.87e-08 and TSHR ag -0.3%.
For COc1ccc(N(CC(=O)Nc2nc3ccc(C)cc3s2)S(=O)(=O)c2c(C)nn(C)c2C)cc1 the results were AID923 -3.4% and TSHR ag 3.9%.
For C=CCN(C)CCCNC(=O)/C=N/O the results were Resorufin fluor inactive, A488 autofl inactive and A647 fluor 1.94e-08.
Screening C/C(CCN1CCCc2nc(C)c(C)cc21)=N\O[C@@H](C)c1cc(-c2c(C)cc(C)cc2C)no1 returned AID923 -0.8%[11.5 µM] and TSHR ag 3.5%[11.4 µM].
`C=CCN1C(=O)C2C(C(=O)NCc3ccccc3)C3(C)C=CC2(O3)C1C(=O)NC(C)(C)C` (centres undefined) gave Resorufin fluor inactive, AID923 -1.7%, A488 autofl inactive, A647 fluor 4.06e-08 and TSHR ag inconclusive.
`N#CCCCCn1c(-c2cncs2)nc2ccccc21` gave Resorufin fluor inactive, AID923 -1.8%, A488 autofl inactive, A647 fluor 3.58e-08 and TSHR ag 9.8%.
For O=C(CSc1nc2scc(-c3ccco3)c2c(=O)n1-c1ccccc1)N1CCOCC1 the results were Resorufin fluor inactive, AID923 3.2%, A488 autofl inactive, A647 fluor 3.39e-08 and TSHR ag 15.8µM*.
Screening COC(=O)c1c(N)nc(C)n1-c1ccc(OC)cc1 returned Resorufin fluor inactive, AID923 2.8%, A488 autofl inactive, A647 fluor 4.38e-08 and TSHR ag -11.7%.
For Cc1ccccc1NC(=O)CSCCO the results were Resorufin fluor inactive, AID923 0.5%, A488 autofl inactive, A647 fluor 1e-09 and TSHR ag -7.2%.
For CCN(CC)c1ccc(NC(=O)CN2CCN(c3nc(C)cc(C)n3)CC2)cc1 the results were Resorufin fluor inactive, AID923 -0.9%, A488 autofl inactive, A647 fluor 1e-09 and TSHR ag inconclusive.
O=C1CS/C(=N\c2ccccn2)N1C1CCCCC1 was read as Resorufin fluor inactive, AID923 1.1%, A488 autofl inactive, A647 fluor 3.76e-08 and TSHR ag 14.2%.
Screening C=CCNc1nc2c(c(=O)[nH]c(=O)n2C)n1CCCCC returned Resorufin fluor inactive, AID923 0.6%, A488 autofl inactive, A647 fluor 6e-09 and TSHR ag -3.7%.
Screening O[C@H](COc1ccccc1)CN1CCCCC1 returned Resorufin fluor inactive, AID923 2.9%[11.5 µM], A488 autofl inactive, A647 fluor 5.6e-09 and TSHR ag inconclusive.
`COc1ccc(CC(=O)c2ccc(O)cc2O)cc1OC` gave AID923 3.3% and TSHR ag -5.6%.
For COc1ccc(NC(=O)C2CCCN(S(=O)(=O)c3cccc4nonc34)C2)c(OC)c1 (centres undefined) the results were Resorufin fluor inactive, AID923 1.2%, A488 autofl inactive, A647 fluor 2.84e-08 and TSHR ag -6.7%.
Screening CCOc1ccc(OCC)c(S(=O)(=O)NCc2cccnc2)c1 returned AID923 -2.4% and TSHR ag 16.2%.
For O=C(c1nsnc1-c1ccccc1O)N1CCCCC1 the results were Resorufin fluor inactive, A488 autofl inactive and A647 fluor 1e-09.
Screening COc1ccc(OCc2nc(C#N)c(N3CCN(c4ccc(OC)cc4)CC3)o2)cc1 returned AID923 2.8% and TSHR ag inconclusive.
Screening CCn1c(-c2cc(OC)ccc2OC)csc1=Nc1c(C)n(C)n(-c2ccccc2)c1=O returned Resorufin fluor inactive, AID923 -0.3%, A488 autofl inactive, A647 fluor 2.3e-09 and TSHR ag 1.5%.

Ordered by heavy-atom count (largest number first): some entries from above
For COc1ccc(N(CC(=O)Nc2nc3ccc(C)cc3s2)S(=O)(=O)c2c(C)nn(C)c2C)cc1 the results were AID923 -3.4% and TSHR ag 3.9%.
Screening CCn1c(-c2cc(OC)ccc2OC)csc1=Nc1c(C)n(C)n(-c2ccccc2)c1=O returned Resorufin fluor inactive, AID923 -0.3%, A488 autofl inactive, A647 fluor 2.3e-09 and TSHR ag 1.5%.
For C=CCN(C)CCCNC(=O)/C=N/O the results were Resorufin fluor inactive, A488 autofl inactive and A647 fluor 1.94e-08.

The listing continues:
Screening Cc1ccc(C2CC(C(F)(F)F)n3nc(C(=O)NCC4CCCO4)cc3N2)cc1 (centres undefined) returned Resorufin fluor inactive, AID923 0.3%, A488 autofl inactive, A647 fluor 3.27e-08 and TSHR ag inconclusive.
Cc1noc(C)c1CSc1nnc2ccc3ccccc3n12 was read as Resorufin fluor inactive, AID923 -0.6%, A488 autofl inactive and A647 fluor 3.4e-09.
Screening CC1CC(=O)N(CC(=O)NCc2ccco2)c2ccccc2S1 (centres undefined) returned AID923 0.7% and TSHR ag 13.8%.
For COc1ccc(NC(=O)C2CCN(S(=O)(=O)c3ccc(C)cc3)CC2)cc1OC the results were AID923 -0.6% and TSHR ag 5.3%.
`O=C1CC(NCCN2CCOCC2)C(=O)N1Cc1ccc(N2CCCC2=O)cc1` (centres undefined) gave AID923 0.9% and TSHR ag 0.7%.
For C=CCOC(=O)C(C(=O)CC)C(NC(=O)OC)c1ccc(F)cc1 (centres undefined) the results were AID923 -1.4%[11.5 µM] and TSHR ag 7.2%[11.4 µM].
O=C(CCC1CCCC1)N1CCN(C(=O)C2CC2)CC1 was read as Resorufin fluor inactive, AID923 0.2%, A488 autofl inactive, A647 fluor 1e-09 and TSHR ag -21.2%.
`O=C(O)/C(Cc1ccc([N+](=O)[O-])cc1)=N/O` gave Resorufin fluor inactive, AID923 5.1%[11.5 µM], A488 autofl inactive, A647 fluor 1e-09 and TSHR ag -1.3%[11.4 µM].
`Nc1nncn1C(=O)c1cccs1` gave Resorufin fluor inactive, AID923 -1.0%, A488 autofl inactive, A647 fluor 4.3e-09 and TSHR ag 4.0%.
Screening COc1ccccc1N1CCN(C(CNS(=O)(=O)c2cccs2)c2cccnc2)CC1 (centres undefined) returned AID923 2.3% and TSHR ag inconclusive.
`O=C(NCc1ccco1)C1CCN(C(=O)Cc2ccccc2)CC1` gave AID923 -0.4% and TSHR ag -2.4%.
Cc1nc(NC2CCCCC2)c2nc(-c3ccccc3)n(CCN3CCCCC3)c2n1 was read as AID923 0.0% and TSHR ag inconclusive.
For Cc1ccc(CNC(=O)CN2CCC(C(N)=O)CC2)cc1 the results were Resorufin fluor inactive, AID923 1.2%, A488 autofl inactive, A647 fluor 1e-09 and TSHR ag -4.1%.
COc1ccc(N2CCCCn3c2nc2c3c(=O)n(C)c(=O)n2C)cc1 was read as Resorufin fluor inactive, AID923 -1.2%, A488 autofl inactive, A647 fluor 1.98e-08 and TSHR ag -0.4%.
For CC(C)Oc1ccc(C(=O)NC2CCS(=O)(=O)C2)cc1 (centres undefined) the results were Resorufin fluor inactive, AID923 -0.7%, A488 autofl inactive, A647 fluor 1e-09 and TSHR ag 21.7%.
CSc1cc(C)nc(N(C)C(C)=O)n1 was read as Resorufin fluor inactive, A488 autofl inactive and A647 fluor 6.57e-08.
Screening COCCn1c(=O)c(-c2ccccc2)nc2cnc(OC)nc21 returned Resorufin fluor inactive, AID923 3.1%, A488 autofl inactive, A647 fluor 1e-09 and TSHR ag -5.9%.
Screening CCCCC(=O)NCCNc1nc2c(c(=O)n(C)c(=O)n2C)n1Cc1ccccc1 returned Resorufin fluor inactive, AID923 -2.1%, A488 autofl inactive, A647 fluor 4.8e-09 and TSHR ag -3.7%[11.4 µM].
`COc1cc(C(=O)Nc2nnc(C)s2)cc(OC)c1OC` gave AID923 2.0% and TSHR ag -2.3%.
For CCCOc1ccc(N2C(=O)CC(N(Cc3ccc(S(N)(=O)=O)cc3)C(=O)CC)C2=O)cc1 (centres undefined) the results were Resorufin fluor inactive, A488 autofl inactive and A647 fluor 2.41e-08.
CCOc1cc(S(=O)(=O)N(CC)CC)ccc1Br was read as Resorufin fluor inactive, AID923 -1.2%, A488 autofl inactive, A647 fluor 6.2e-09 and TSHR ag 18.2%.
`Cc1nn(-c2ccc(Cl)cc2)c2sc(C(=O)N3CCN(C(=O)c4ccco4)CC3)cc12` gave Resorufin fluor inactive, AID923 0.0%, A488 autofl inactive, A647 fluor 1.71e-08 and TSHR ag 1.2%.
O=C1CSC(=S)N1c1cccnc1 was read as Resorufin fluor inactive, AID923 5.7%, A488 autofl inactive, A647 fluor 1.89e-08 and TSHR ag -2.1%.
`Cc1nc2cc(NC(=O)NCCC3=CCCCC3)ccc2o1` gave Resorufin fluor inactive, AID923 -1.5%, A488 autofl inactive, A647 fluor 2.63e-08 and TSHR ag -2.4%.
Screening O=C(OCc1cc(=O)n2cc(Br)ccc2n1)C1COc2ccccc2O1 (centres undefined) returned Resorufin fluor inactive, AID923 -0.7%, A488 autofl inactive, A647 fluor 7.4e-09 and TSHR ag 10.7%.
Screening Cc1oc(-c2cccc(Cl)c2)nc1CN1CCCC(C(=O)NCCCN2CCOCC2)C1 (centres undefined) returned Resorufin fluor inactive, AID923 -0.8%, A488 autofl inactive, A647 fluor 5.8e-09 and TSHR ag 12.8%[11.4 µM].
Screening COCCOC(=O)c1[nH]c2c(c1C)C(=O)CC(c1ccco1)C2 (centres undefined) returned AID923 2.0% and TSHR ag -7.0%.
For CCCCC(=O)Nc1ccc(NC(=O)CCCC)nc1 the results were Resorufin fluor inactive, AID923 1.2%, A488 autofl inactive, A647 fluor 2.57e-08 and TSHR ag -2.7%.
Screening CCN(Cc1nc2cc(OC)c(OC)cc2c(=O)[nH]1)C(=O)c1ccc(S(=O)(=O)N(C)C)cc1 returned Resorufin fluor inactive, AID923 0.3%, A488 autofl inactive, A647 fluor 3.28e-08 and TSHR ag -1.5%.
For Cc1ccc(-c2nc(C3CCCN(S(=O)(=O)c4ccc(C(F)(F)F)cc4)C3)no2)cc1 (centres undefined) the results were Resorufin fluor inactive, AID923 -2.8%, A488 autofl inactive, A647 fluor 4e-09 and TSHR ag 5.6%.
For CCCOc1ccc(C2/C(=C(/O)c3ccc(F)cc3)C(=O)C(=O)N2CCCN(C)C)cc1 (centres undefined) the results were Resorufin fluor inactive, AID923 0.4%, A488 autofl inactive, A647 fluor 2.37e-08 and TSHR ag -11.1%.
Screening CCOCCSc1nc2c(c(=O)[nH]c(=O)n2C)n1CCCc1ccccc1 returned Resorufin fluor inactive, A488 autofl inactive and A647 fluor 4.3e-09.
Screening CCOC(=O)C1CCCN(c2nnnn2-c2ccccc2)C1 (centres undefined) returned Resorufin fluor inactive, AID923 -1.0%, A488 autofl inactive, A647 fluor 1.5e-09 and TSHR ag 1.2%.
For C=CCOc1ccc(/C(O)=C2/C(=O)C(=O)N(CCCn3ccnc3)C2c2cccs2)cc1 (centres undefined) the results were AID923 1.3% and TSHR ag -0.2%[11.4 µM].
Screening CN(C)CCCN1CCC2(CCC(C(C)(C)C)CC2)CC1 returned Resorufin fluor inactive, AID923 0.2%[11.5 µM], A488 autofl inactive, A647 fluor 1e-09 and TSHR ag 6.7%[11.4 µM].
For O=C(CCS(=O)(=O)c1cccc2nsnc12)N1CCN(Cc2ccc3c(c2)OCO3)CC1 the results were Resorufin fluor inactive, AID923 -0.1%, A488 autofl inactive, A647 fluor 5.2e-09 and TSHR ag -5.8%.
For COc1cccc(N2CCN(Cc3nc(N)nc(N4CCCc5ccccc54)n3)CC2)c1 the results were Resorufin fluor inactive, AID923 -3.9%, A488 autofl inactive and A647 fluor 3.6e-09.
For CN(C)c1ccc(NC(=O)c2cccc(N3C(=O)C4C5C=CC(C5)C4C3=O)c2)cc1 (centres undefined) the results were Resorufin fluor inactive, AID923 1.5%, A488 autofl inactive, A647 fluor 1.03e-08 and TSHR ag -5.6%[11.4 µM].
CCOC(=O)c1cccc(C(=O)OCC)n1 was read as Resorufin fluor inactive, AID923 0.8%, A488 autofl inactive, A647 fluor 2.1e-09 and TSHR ag 1.7%.
